CDC25B-CDK2 inh – human CDC25B-CDK2/CyclinA binding inhibition; AID 1259370; P30305+P24941; 94,000 compounds, 0.72% hits; z-score (concentration not given with the values); HTRF CDC25B-CDK2/CyclinA binding, anti-His/anti-Flag; active compounds read high;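 note: score is relative to mean and SD of negative controls; strong numbers were not always called active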
TAR Tat displ – HIV-1 TAR-Tat binding disruption; AID 1259389; HIV-1 TAR RNA, Tat peptide displacement FRET; active compounds read high; z-score (test concentration not listed); 100,000 compounds, 0.6% hits;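 note: score is relative to mean and SD of negative controls; some compounds called inactive have numbers as strong as hits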
Active calls of the source: *; nt = no result given; & = joins results of further samples.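 Rule for the calls: active = z-score from 3 up in half or more of its runs; inactive = the rest.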

smiles,CDC25B-CDK2 inh,TAR Tat displ
CCCc1nc(N2CCOCC2)c(C#N)c2c1COC(C)(C)C2,0.15,0.13
Cc1cccc(Nc2ncnc3onc(-c4cccc(Cl)c4)c23)n1,nt,0.54
CCOC(=O)C1CCN(S(=O)(=O)c2cc3c4c(c2)CC(=O)N4CCC3)CC1,nt,0.99
CS(=O)(=O)CC[C@@H](C(=O)NC1CCCCC1)N1Cc2ccccc2C1=O,-0.85,0.21
Cn1c(=O)c2c(nc(NCCO)n2Cc2ccc(Br)cc2)n(C)c1=O,-0.97,nt
CCN1CCN(C(=O)CSc2nc(-c3ccco3)cc(C(F)(F)F)n2)CC1,-0.51,0.35
C=CCNC(=O)CCSc1nc(-c2ccc3c(c2)OCO3)cc(C(F)(F)F)n1,-0.67,4
N#Cc1nc(-c2ccc(COc3ccc(Cl)cc3)o2)oc1NCC1CCCO1 (stereo not drawn),-2.1,1.1
CCSCCOC(=O)C1=C(C)N(C)C(=O)NC1c1cc(Br)c(O)c(OC)c1 (stereo not drawn),-1.9,nt
Cc1cccc(-c2nc(C)c(CCNS(=O)(=O)c3cc(F)ccc3F)s2)c1,nt,0.65
CCSc1nnc(NC(=O)CCN2C(=S)NC(C)(C)CC2C)s1 (stereo not drawn),-0.36,nt
Cc1cc(C)cc(S(=O)(=O)N(Cc2cc(CN3CCOCC3)cs2)c2ccc(F)cc2)c1,nt,0.01
O=C(CN(C1CCCCC1)S(=O)(=O)c1ccc(Br)cc1)N1CCc2ccccc2C1,3.8,-0.84
CCOc1c(Br)cc(C2C(C#N)=C(N)Oc3cc4c(cc32)OCO4)cc1OC (stereo not drawn),0.05,nt
O=C1COc2ccc(S(=O)(=O)NCc3ccco3)cc2N1,nt,1.5
Fc1ccc(Oc2nc(Oc3ccc(F)cc3)nc(N3CCSCC3)n2)cc1,-0.62,nt
CNC(=O)c1c(NC(=O)c2ccc3c(c2)OCCO3)sc2c1CCC2,nt,0.56
O=C(c1ccco1)N1CCN(C(=O)C2CC(c3ccccc3F)=NO2)CC1 (stereo not drawn),-1.8,-0.61
CCc1noc2nc(C(=O)O)nc(N3CCOCC3)c12,-0.87,1.3
COc1ccc(-c2cnnc(-n3nc(C)c4c3NC(=O)CC4c3ccc(OC(C)C)cc3)n2)cc1 (stereo not drawn),-2.7,3.7
CC1(C)CC(=O)C2=C(C1)Nc1ccccc1NC2c1ccc(F)cc1 (stereo not drawn),0.89,-15
CC1CCN(C(=O)C2CCN(c3ccc(N4CCOCC4)nn3)CC2)CC1,nt,0.53
COc1cc(-c2nc3sccn3c2Nc2ccccc2)ccc1O,-1,1.1
Nc1c(C(=O)NCCc2ccccc2)nnn1Cc1ccc(Br)cc1F,-0.25,nt
O=C(Cn1cc2c(n1)CCCC2)NCc1cccs1,-1.8,nt

Three of these compounds, set out differently.
CCc1noc2nc(C(=O)O)nc(N3CCOCC3)c12
  CDC25B-CDK2 inh: -0.87	TAR Tat displ: 1.3
COc1ccc(-c2cnnc(-n3nc(C)c4c3NC(=O)CC4c3ccc(OC(C)C)cc3)n2)cc1 (stereo not drawn)
  CDC25B-CDK2 inh: -2.7	TAR Tat displ: 3.7
CC1(C)CC(=O)C2=C(C1)Nc1ccccc1NC2c1ccc(F)cc1 (stereo not drawn)
  CDC25B-CDK2 inh: 0.89	TAR Tat displ: -15

The list goes on:
smiles,CDC25B-CDK2 inh,TAR Tat displ
O=C(O)COCC(=O)Nc1cc(C(F)(F)F)cc(C(F)(F)F)c1,-1.2,nt
CCC(C)n1c(SCc2cc(=O)n3cc(Cl)ccc3n2)nc2ccsc2c1=O (stereo not drawn),-1.8,nt
O=c1[nH]ccc2c1c(=O)[nH]c1ccccc12,-0.73,nt
Cc1nc2ccccc2nc1SCC(=O)N1CCCCC1,nt,0.42
C#CC(O)(c1ccc(OC)cc1)c1ccccc1F (stereo not drawn),-1.7,0.57
COCc1nc2ccccc2n1Cc1cccc2ccccc12,-0.38,0.77
CCOC(=O)C1CCN(c2c(S(=O)(=O)c3ccc(Cl)cc3)cnc3ccc(F)cc23)CC1,-0.38,2.6
Cc1nc(-c2ccc(NC(=O)COCC(=O)O)cc2)cs1,-2.1,nt
Cn1c(=O)c2c(nc3n(Cc4ccc(F)cc4)c(-c4ccc(Cl)cc4)cn23)n(C)c1=O,-0.93,0.99
CCOc1cc(C2c3c(oc4cc(C)cc(C)c4c3=O)C(=O)N2CCO)ccc1O (stereo not drawn),-1.2,0.09
CC(C)C(=O)Nc1c(C(=O)c2ccccc2)oc2ccccc12,-1.2,-0.86
O=C1CC(c2cccc(Cl)c2)Cc2nc(N3CCN(Cc4ccc5c(c4)OCO5)CC3)ncc21 (stereo not drawn),-0.99,-1.5
O=C(O)CCSCCCN1C(=O)c2cccc3cccc(c23)C1=O,-1.4,nt
CCc1nnc(NC(=O)CSc2ccc3nnc(-c4ccc(Cl)cc4)n3n2)s1,0.4,nt
CC(=O)N1CC(C)Sc2ccc(S(=O)(=O)Nc3nc(C)cs3)cc21 (stereo not drawn),nt,1.6
CC(c1nc2ccccc2n1C)N1CCCCC1 (stereo not drawn),-0.28,0.55
CCN(CC)c1ccc(C2C(C(=O)OCCOC)=C(C)NC3=C2C(=O)CC(C)(C)C3)cc1 (stereo not drawn),-1.1,1
CCC1CN(C(=O)Nc2ccc(F)cc2)c2ccccc2O1 (stereo not drawn),nt,1.4
O=C(NCc1cccnc1)c1cnc2sc(N3CCCCC3)nn2c1=O,nt,1.4
O=C(CSc1ccc(Br)cc1)Nc1cccc(OC(F)(F)C(F)F)c1,-0.04,nt
Cc1ccc(-c2noc3ncnc(NCC4CCCO4)c23)cc1 (stereo not drawn),nt,0.65
O=C(c1ccco1)c1coc2ccc(O)cc12,-0.03,nt
Cc1cccc(N(C)S(=O)(=O)c2ccc(-n3cccn3)cc2)c1,nt,1.1
Cc1c(C(=O)NC2CCCC2)oc2ccc(S(=O)(=O)N3CCCCCC3)cc12,-1.2,nt
CCNC(=O)c1cc2c(=O)n3cccc(C)c3nc2n1C,nt,-0.6
COc1ccccc1Cn1cc2c(-c3ccccc3)nnc-2c2cc3c(cc21)OCO3,-2.1,-0.48
CCc1nnc2c(NC3CCCC3)nc3ccccc3n12,nt,-0.32
Brc1cccc(CN2CCN(Cc3cccnc3)CC2)c1,-2.1,0.87
Cc1ccc(S(=O)(=O)NCCc2sc(-c3cccnc3)nc2C)cc1C,nt,0.98
COc1ccc(CNc2ncnc3c2cnn3C)cc1,nt,2.1
Cc1nc(SCC(=O)c2ccc(F)cc2)cc(-c2ccccc2)n1,0.75,2.4
Cc1[nH]c2ccccc2c1C(=O)CSc1nnc(-c2cccs2)n1C,-0.29,2.9
Cc1nn(-c2ccc(N3CCCCC3)nn2)c(C)c1CCC(=O)N1CCC(C)CC1,nt,-0.55
CC(C)Cn1c(=O)c2sccc2n2c(CCCC(=O)N3CCC(C(N)=O)CC3)nnc12,nt,-0.31
O=S1(=O)N=C(c2ccccc2F)Nc2ccc(S(=O)(=O)N3CCCCC3)cc21,nt,0
Cc1c(Cl)cccc1-n1nc(C)c2c(C)cc(=O)oc21,-0.78,nt
Cc1cccc(-c2nc3sc(N4CCN(Cc5ccncc5)CC4)nn3c2NC(C)(C)C)c1,nt,1.1
CCOC(=O)c1nc2c(oc3ccccc32)c(=O)[nH]1,-0.52,0.69
CC(C)C12CN3CC(C(C)C)(CN(C1)C31C(=O)Nc3ccc(Br)cc31)C2=O (stereo not drawn),-0.23,nt
Cc1nc(-c2ccc(C)c(S(=O)(=O)N3CCCc4ccccc43)c2)cs1,nt,1.7
O=C(C1CCCN(S(=O)(=O)c2ccc(Cl)cc2)C1)N1CCCCCC1 (stereo not drawn),0.23,nt
O=C1NN(c2ccc(Cl)cc2)C(=O)/C1=C\c1cc(Cl)cc(Br)c1O,-2.9,nt
O=C(Nc1ccccc1F)N1CCSc2ccccc21,nt,0.4
Cc1cccc(Nc2nc(N3CCCC(C)C3)nc(N)c2[N+](=O)[O-])c1 (stereo not drawn),nt,1
O=C1COc2cc(S(=O)(=O)NC3CCCCC3)c(Cl)cc2N1,nt,-0.08
Cc1nnc(SCc2nc(-c3cccs3)no2)n1-c1ccc(F)cc1,0.31,1.5
CCCCN(CC)CCNC(=O)c1ccc2c(Cl)c3c(nc2c1)CCC3,-2.4,nt
N#Cc1nc(/C=C/c2ccc(F)cc2)oc1N1CCNCC1,0.11,-0.72
O=C1CN(C(=O)COc2cccc3ccccc23)c2ccccc2N1,1.8,0.57
COc1ccc(-c2nc3ccccc3o2)cc1NC(=O)c1cc2ccccc2o1,-1.6,nt

The list continues:
Order of values – CDC25B-CDK2 inh | TAR Tat displ
O=C(NCc1nnnn1-c1ccc(Cl)cc1)Nc1ccccc1
    nt | 1.4
O=C(ON1C(=O)CCC1=O)c1ccccc1Cl
    -0.51 | nt
CN(C)c1ccncc1C(=O)Nc1cc(Cl)cc(Cl)c1
    -1.5 | nt
COC(=O)CSc1ncn(-c2nc(OC)nc(N(C)C)n2)n1
    -2 | 1.4
COC(=O)C(Cc1c[nH]c2ccccc12)NC(=O)C1CCCN1C(=O)OCc1ccccc1 (stereo not drawn)
    -0.48 | nt
CC(=O)O[C@@H]1CC[C@@]2(C)[C@H](C1)[C@H](OC(C)=O)C[C@@H]1[C@@H]2C[C@H]2[C@@H]3CN4C[C@H](C)CC[C@H]4[C@H](C)[C@H]3CC[C@@]12O
    nt | 1.9
COc1cc(OC)c(NC(=O)CNC(=O)Cn2cnc3sc4c(c3c2=O)CCCC4)cc1Cl
    nt | 0.8
Cc1ccc(NS(=O)(=O)c2ccc(N3CCCCS3(=O)=O)cc2)c(C)c1
    nt | 0.23
O=C(c1nn2c(c1Cl)NC(c1ccc(Br)cc1)CC2C(F)(F)F)N1CCCCC1 (stereo not drawn)
    -1.6 | 0.55
CCCCN(C)C(=O)c1cc2cc3cc(OC)ccc3nc2o1
    -2.4 | nt
CC(=O)N[C@@H](CC(=O)O)C(=O)N[C@@H](CCC(=O)O)C(=O)O
    nt | 0.49
CCCCN(CC)S(=O)(=O)c1cc(-c2onc(C)c2C)ccc1OC
    nt | -0.52
Cc1ccccc1-n1c(SCC(=O)c2c[nH]c3ccccc23)nnc1-c1cccnc1
    nt | 0.9
O=c1c2c(nc3n1CCCS3)-c1ccccc1CC21CCCCC1
    -2.2 | nt
CCCNS(=O)(=O)c1ccc2c(c1)NC(=O)CC(C)S2 (stereo not drawn)
    nt | 1.2
Nc1c(-c2nc(-c3ccc(F)cc3)no2)nnn1-c1ccccc1
    nt | 1.8
CN(C)CCOC(=O)c1ccco1
    -3.2 | 1.6
O=C(O)CCC(=O)N1c2ccccc2NC2=C(C(=O)CC(c3ccccc3)C2)C1c1cccnc1 (stereo not drawn)
    0.5 | 1.9
O=C(C1CCN(c2nc3ccccc3[nH]2)CC1)N1CCCCC1
    nt | -0.32
Cc1cccc(-c2csc(-c3nc(-c4cccc(F)c4)no3)c2-n2cccc2)c1
    -1.1 | 0.67
CCCC1c2ccc(C)n2CCN1C(=O)Nc1ccc(OC)cc1OC (stereo not drawn)
    -1.3 | -12
COc1ccccc1N1CCN(c2nnc(Cc3ccncc3)c3ccccc23)CC1
    -1.4 | 0.36
Cc1ccc(S(=O)(=O)NC2=NCN(CCCN3CCOCC3)CN2)cc1
    -0.89 | -2.4
CCOc1ccc(C2CC(=O)Nc3nc(SCc4ccc(C)cc4)[nH]c(=O)c32)cc1OC (stereo not drawn)
    -1.3 | -0.15
OC1(c2ccc(Cl)cc2)CCN(Cc2c[nH]c3ccccc23)CC1
    0.95 | nt
CN1C(=O)C2(/C(=C(/O)c3ccccc3)C(=O)C(=O)N2CC2CCCO2)c2ccccc21 (stereo not drawn)
    0.43 | -0.01
COc1ccccc1Nc1ncnc2onc(-c3cc(F)cc(F)c3)c12
    nt | 0.84
CC(C)(C)/C=N/NS(=O)(=O)c1ccc(Cl)s1
    -1.9 | nt
CN1C(=O)CC(=O)N(C)c2cc(S(=O)(=O)N3CCC(N4CCCCC4)CC3)ccc21
    -0.65 | -1.1
O=C(O)CN1C(=O)/C(=C\c2cc([N+](=O)[O-])cc(Br)c2O)SC1=S
    -2.5 | nt
Cc1c(Cc2cccc(Cl)c2)c(=O)[nH]c2nc3ccccc3n12
    0.06 | 0.37
COc1ccccc1-c1c(C(F)(F)F)oc2cc(OC(=O)N3CCOCC3)ccc2c1=O
    -0.99 | -0.54
CC1CCc2c(C(=O)NCCCN3C(C)CCCC3C)csc2C1 (stereo not drawn)
    -1.5 | 1.2
CN(C)/N=C(/Sc1ccc(Br)cc1)c1cc(C(F)(F)F)cc(C(F)(F)F)c1
    -1.2 | nt
Cc1nc(-c2cccs2)c(CC(=O)Nc2ccc3c(c2)OCCO3)s1
    -2.5 | 0.07
Clc1ccc(Cn2c(CN3CCCC3)nc3ccccc32)cc1
    -1.5&0.94 | 3
CCN(C(=O)c1noc2c1COc1ccccc1-2)c1ccccc1
    -0.98 | 0.6
O=c1c2cccnc2[nH]c(=S)n1CCN1CCN(c2ccccc2F)CC1
    -0.77 | nt
Cc1cccc(-n2c(C)c(C)c3c2ncn2nc(-c4cccnc4)nc32)c1
    -1 | -0.39

Rewritten with each value named: part of the list above
Clc1ccc(Cn2c(CN3CCCC3)nc3ccccc32)cc1
  CDC25B-CDK2 inh: -1.5&0.94
  TAR Tat displ: 3

Cc1nc(-c2cccs2)c(CC(=O)Nc2ccc3c(c2)OCCO3)s1
  CDC25B-CDK2 inh: -2.5
  TAR Tat displ: 0.07

CC1CCc2c(C(=O)NCCCN3C(C)CCCC3C)csc2C1 (stereo not drawn)
  CDC25B-CDK2 inh: -1.5
  TAR Tat displ: 1.2

Cc1cccc(-n2c(C)c(C)c3c2ncn2nc(-c4cccnc4)nc32)c1
  CDC25B-CDK2 inh: -1
  TAR Tat displ: -0.39

From PubChem BioAssay
